Tg IFNy HTS: T. gondii growth inhibition under IFN-gamma. Toxoplasma gondii growth in IFN-gamma-treated host cells; active compounds read low; reference of the scale not given here. activity change, negative = inhibition, %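 (about 20 µM by stock and volumes)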. 3.8% of 69,000 active. AID 1259416;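 active = below -70%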;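 also: host cells are HeLa cells infected with Toxoplasma gondii; parasite growth read as luciferase light; one replicate is shown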
* hit, by the source's call; & = joins results of further samples. This is a subset; rates above refer to the full screens.

compound | Tg IFNy HTS
O=C1C2C(c3ccccc3)OC3(C(=O)c4ccccc4C3=O)C2C(=O)N1c1cccc(F)c1 (stereo not given) | 27.7
C=CCn1c(=O)c(C(=O)NCc2ccccc2OC)c(O)c2ccccc21 | 105.4
Cc1ccsc1CN(C)C(=O)[C@@]12CC[C@@](C)(OC1=O)C2(C)C | 32.3
COc1ccccc1CNc1nc(-c2nnc(-c3cccc(C)c3)o2)nc2ccccc12 | -89.8*
CCOCC1CN(Cc2ccccn2)Cc2cn(C)nc21 (stereo not given) | -4.7
O=C(c1cc2cccnc2n(Cc2ccccc2F)c1=O)N1CCN(c2ccccc2F)CC1 | 35.8
O=C(c1cccc(-n2cccn2)c1)N1CCN(c2nccs2)CC1 | -4.4
Cc1noc(C)c1C(=O)N1CCC2(CC(NS(C)(=O)=O)C2)C1 (stereo not given) | -5.2&-6.7
COC(=O)c1c(NCc2ccco2)c2cccc(Cl)c2[nH]c1=O | 0.4
CC(=O)Nc1ccc(-c2nccn2Cc2ccc3c(c2)OCO3)cc1 | 4.5
CC1(C)NC(C(=O)O)Cc2c1[nH]c1ccccc21 (stereo not given) | -7.2
CCO[C@@H]1CO[C@@]2(CCCN(C(=O)c3cccc(C)n3)C2)C1 | 2.4
N#C[C@H]1[C@H](c2ccccc2C2=CCCC2)[C@H](CO)N1C(=O)NC1CCCCC1 | 41.6
CCc1ccc2c(c1)cc(S(=O)(=O)c1ccccc1)c(=O)n2CC(=O)NC(C)CC (stereo not given) | -4.8
O=C(NC1CC1)c1cc2n(n1)CCN(C(=O)C1C=CCN1)C2 (stereo not given) | -3.9
O=c1cc(CSc2ccc(Cl)cc2)[nH]c(=O)[nH]1 | 1.1
CCOC(=O)CSc1nc(NCc2ccc(OC)cc2)c2ccccc2n1 | -9.1
Cc1oc(-c2ccccc2)nc1Cc1noc(-c2cccnc2)n1 | -86.8*
COC(=O)CNC(=O)N1CCC2(CC1)Nc1ccccc1-n1cccc12 | 104.9
COC(C)(C)C(=O)N1CCCC1c1ccc(Cc2cccc(C(F)(F)F)c2)cn1 (stereo not given) | 2.6
CN1c2ccc(Br)cc2[C@@H]2[C@@H](CCN2C(=O)Cc2ccccc2)[C@@H]1CO | 14.8
CCSc1ncc(-c2c(-c3ccccc3)ncn2CC2CCN(C)C2)cn1 (stereo not given) | -5.8
Nc1nnc(SCc2ccccn2)s1 | 4.7
COc1cccc(-c2nc(Cn3ccn4nc(-c5cccs5)cc4c3=O)c(C)o2)c1OC | -96.9*
O=C(C1CCC1)N1CCC[C@@H]1Cn1nnc(-c2cccnc2)n1 | -32.8
CS(=O)(=O)N1CC(C(=O)NCc2ccccc2N2CCCC2)Oc2ccccc21 (stereo not given) | 5.4
Cc1cccc(-c2ccc3cc(C(=O)Cc4cccnc4)c(-c4cocn4)n3c2)c1 | 16.2
O=C(NCCCCc1ccccc1)c1ccccc1 | -81.9*
CN(C)CCN1CCO[C@H]2CN(C(=O)c3cnccn3)C[C@@H]21 | 1.2
CNC(=O)C[C@H]1CC[C@H]2[C@H](COc3ccc(NS(=O)(=O)c4ccc(F)cc4)cc3C(=O)N2C)O1 | -5.8
CC(C)Cc1noc(C(C)NC2CCN(c3ccc4c(c3)OCO4)CC2)n1 (stereo not given) | -1.6
COCCC(=O)N1CCN(Cc2csc(C)n2)c2ncccc2C1 | 4.2
CC1=C(CCN2CCC3(CC2)C(=O)N(C)C(=O)N3Cc2ccccc2)C(C)(C)CCC1 | -30.8
COc1ccc(OC)c(-c2cc(C(N)=O)ccc2C)c1 | -76.1*
CC(CC(=O)O)n1nnc2ccccc21 (stereo not given) | 1.1
CC(C)C[C@H]1COCc2cn(nn2)CC[C@H](C)C(=O)N1 | -3.7
CC(C)CC(=O)N1CCC2(CC1)NC(=O)[C@@H]1CN(c3ncccn3)C[C@H]12 | -3.7
O=C(CN1CCCC1)N1c2ccccc2C=Cc2ccccc21 | -9.9
COc1ccc2nc(C)cc(Nc3ccccc3O)c2c1 | -63.4
Cc1ccc2c(c1)C(C)(C)[C@]1(C)NC(=O)CCN21 | -4.6
CO[C@H]1CN(C)C(=O)c2cc(NC(=O)c3ccc(Oc4ccccc4)cc3)ccc2OC[C@@H](C)NC[C@H]1C | 21.5
CC(C)NC(=O)CN(c1ccc2c(c1)OCO2)S(C)(=O)=O | 37.9
CCC(C(=O)NCc1nnc(C)o1)n1cc(C(C)=O)c2ccccc21 (stereo not given) | 3.9
Oc1ccccc1OCCOc1ccccc1OCCOc1ccccc1O | 10.1
C[C@H](CO)N1C[C@H](C)[C@H](CN(C)C(=O)Nc2cccc(C(F)(F)F)c2)OCc2cn(nn2)CCCC1=O | 99.3
CC(C)C(=O)c1cc(-c2ccn(CC3CC3)n2)n2ccccc12 | 50.6
CCOC(=O)c1nn(C)c2c1CN(Cc1ccc(N(C)c3ccccc3)cc1)CC2 | 8.2
CS(=O)(=O)Nc1cc2occ(NC=O)c(=O)c2cc1Oc1ccccc1 | 17.6
C#CCOc1ccc(CN2CCOC3(COCCN(C(=O)CC)C3)C2)cc1 (stereo not given) | -26.5
CCOc1nc(N2CCOCC2)nc(N)c1S(=O)(=O)c1ccc(Cl)cc1 | -40.6
Cc1cccc(COC2COC3(CCN(C(=O)c4ccoc4)CC3)C2)n1 (stereo not given) | -46.1
COc1ccc(-c2nc(Cn3nnc(C(=O)Nc4cccc(Cl)c4)c3C)c(C)o2)c(OC)c1 | 191.0
Cc1nc(C(C)C)ncc1C(=O)N1CCC(c2ccccc2C(=O)O)C1 (stereo not given) | 7.0
c1ccc(-c2ncn(CCc3cnn(-c4ccccc4)c3)c2-c2cnc[nH]2)cc1 | -38.7
Cc1ccc(-c2nc(Cn3nnc(C(=O)NCc4ccco4)c3C)c(C)o2)cc1 | -0.3
O=C(C[C@@H]1CC[C@H]2[C@@H](COC[C@@H](O)CN2C(=O)Nc2ccccc2)O1)NCc1ccccc1F | 13.2
CCC(=O)N1CCC2(CCOCC2COc2ccccn2)CC1 (stereo not given) | 0.2
CCc1nnsc1C(=O)NC1CCN(Cc2cc(-c3ccc(F)cc3)nn2C)CC1 | 14.3
O=C(NCC1CCCOC1)[C@@H]1CN(Cc2ccccc2)C[C@H]1C(=O)c1ccc(F)cc1 (stereo not given in full) | 29.3
CCn1nc(C)cc1C(=O)N1CCCCC1CCn1ccnc1 (stereo not given) | -6.8

Fetched by compound from the entries so far (three):
compound | Tg IFNy HTS
CC(C)C[C@H]1COCc2cn(nn2)CC[C@H](C)C(=O)N1 | -3.7
CC1=C(CCN2CCC3(CC2)C(=O)N(C)C(=O)N3Cc2ccccc2)C(C)(C)CCC1 | -30.8
CCC(C(=O)NCc1nnc(C)o1)n1cc(C(C)=O)c2ccccc21 (stereo not given) | 3.9

Remaining list, next part.
compound | Tg IFNy HTS
COc1cccc(OC)c1OCCNCC1COc2ccccc2O1 (stereo not given) | 27.5&23.2
Cc1ccc(C2(O)CCN(C(=O)C3CCCCn4nnnc43)CC2)nc1 (stereo not given) | -1.4
Cc1noc(C)c1NC(=O)Nc1ccc2c(c1)C(=O)N([C@@H](C)CO)C[C@@H](C)[C@H](CN(C)S(=O)(=O)c1cccs1)OCCCC[C@H](C)O2 | 30.4
CC(C)NC(=O)N1CC[C@H]2[C@@H]1c1cc(C#Cc3ccccc3)ccc1N(C)[C@H]2CO | 14.3
CCn1cc(C(CNC(=O)NCc2ccccc2)c2cccnc2)c2ccccc21 (stereo not given) | -64.2
O=C(O)CCC(=O)N1C[C@H]2CN(C(=O)c3ccco3)C[C@@H]21 | 6.1
O[C@@H]1CN(CCCC2CCCC2)CC[C@H]1c1ccc2c(c1)OCO2 | -25.7
Cc1noc(C[C@H]2C[C@@H]3CN(C(=O)c4occc4C)C[C@H]3O2)n1 | 6.4
C=CCN(Cc1ccc(F)cc1)C(=O)c1sccc1C | 54.1
CN(C[C@@H]1[C@@H](c2ccccc2)[C@@H](CO)N1Cc1ccccn1)S(C)(=O)=O | -2.3
Cc1cccnc1CNS(=O)(=O)c1ccc2c(c1)C(NC(=O)c1ccccc1)CC2 (stereo not given) | 10.3
Cc1nc(N2CCOCC2)nc2c1COCC21CCN(C(=O)C2CC2)C1 (stereo not given) | 118.4
CCn1c(C2CCN(S(=O)(=O)N3CCN(C)CC3)CC2)nn(C)c1=O | 1.7
Cc1nnn2c1COC(CNC(=O)c1ccc[nH]1)C2 (stereo not given) | 7.8
COc1ccccc1NC(=O)N1[C@@H](C#N)[C@@H](c2ccccc2)[C@@H]1CO | 0.8
Cc1ccc(-c2cnc(NC(=O)Cn3c(C)nc4ccccc4c3=O)n2C)cc1C | -62.2
CCCNC(=O)N1CC2(C1)CN(Cc1ccc(F)cc1)[C@H](CO)c1[nH]c3cc(OC)ccc3c12 | -8.0
Cc1nc2c(c(=O)n1C)CCN(C(=O)CN1CCC(c3ccccc3)C1)CC2 (stereo not given) | 5.1
CC(NC(=O)Cc1ccc2nc[nH]c2c1)c1cc2cc(Cl)ccc2o1 (stereo not given) | -18.1
O=C(O)C1CC(N2CCCC2)CCN1C(=O)c1ccc2c(c1)OCO2 (stereo not given) | -37.5
Cc1ccc(CN2CCc3nc(N4CCCC4)nc(C)c3C2)cc1 | -20.5
C[C@@H]1CN([C@@H](C)CO)C(=O)CCCn2nncc2CO[C@@H]1CN(C)Cc1ccc2cccnc2c1 | 45.4
Cn1nc(Cn2ccnc2)c2c1CN(CCO)C2 | -22.4
CS(=O)(=O)c1cccc(C(=O)NCC2(O)CCNC2)c1 (stereo not given) | 9.0
COc1ccc(C(=O)N2CCc3c([nH]c4ccccc34)C2c2cccnc2)cc1OC (stereo not given) | 70.0
CO[C@@H]1CN(C)C(=O)c2ccc(NC(=O)Nc3ccccc3F)cc2OC[C@@H](C)N(CC2CC2)C[C@H]1C | 205.8
CN1CCC2(CC1)CN(S(=O)(=O)c1ccc(F)cc1)Cc1ccccc12 | -6.5
Cc1ccc(CN(CCCN2CCOCC2)Cc2cncc3c(Cl)[nH]nc23)o1 | 8.2
COc1ccc(S(=O)(=O)N2CC[C@@H]3[C@H]2c2cc(Br)ccc2N[C@@H]3CO)cc1 | 14.9
COc1cc(C(F)(F)F)cc(C(F)(F)F)c1C(=O)NCc1cccs1 | -81.2*
O=C(Nc1ccc(F)cc1)N1C[C@H]2CC[C@@]3(N=C(c4ccccc4)NC3=O)[C@@H]2C1 | 9.4
Cc1ccc(CN(C)Cc2ccc(-n3ccnc3)cc2)o1 | 63.6
O=C(NCCc1csc(C2CCN(C(=O)c3ccccc3)CC2)n1)C1CCC1 | 17.8
CC(C)[C@@H]1CCc2cnnn2COC[C@H](Cc2ccccc2)NC1=O | 27.6
Nc1ccc(OC(=O)c2cccc(S(=O)(=O)Oc3ccc(N)cc3)c2)cc1 | 2.1
O=C(COc1cccnc1)N1CCn2nc(C(=O)N3CCCC3)cc2C1 | 100.1
CCOC(=O)CC(=O)c1cc(C(C)=O)c(Nc2ccccc2)s1 | -22.4
CCCc1ccc(S(=O)(=O)N2CCC(C(=O)NCCc3csc(-c4ccccc4)n3)CC2)cc1 | -52.0
CC(C)[C@H]1C(=O)N[C@@H](CCCN=C(N)N)C(=O)NCC(=O)N[C@@H](CC(=O)O)C(=O)N[C@H](Cc2ccccc2)C(=O)N1C | 41.8
COc1ccc(Cc2ncc3c(n2)CN(C(=O)[C@@H](O)c2ccccc2)C3)cc1 | 0.4
CC(C)N1CCC(N2CCN(Cc3cccc(Oc4ccccc4)c3)CC2CCO)CC1 (stereo not given) | -19.1
CCOc1ncccc1-c1ccc2ncsc2c1 | -17.4
N=c1c[n+](N2CCOCC2)[n-]o1 | -6.5
O=C(NCC1CC1)c1ccn(-c2ccc3ccc(-c4ccccc4)cn23)n1 | 26.1
C[C@@H]1CN([C@H](C)CO)C(=O)c2cc(-c3cccc(C#N)c3)cnc2O[C@H]1CN(C)C(=O)C1CCOCC1 | 64.0
CC(C)OC(=O)CC1C(=O)NCCN1C(=S)NC(=O)c1ccccc1Cl (stereo not given) | 16.8
O=C(c1ccccc1F)N1C[C@@H]2CN(c3cnccn3)CC[C@H]2C1 | -0.1
CC(C)c1ccc(NC(=O)Nc2csc(-c3cccs3)n2)cc1 | -51.6
Cc1ccc(CNC(=O)c2cncc(NS(=O)(=O)c3ccc(C)cc3)c2)cc1 | 9.1
Cc1ccc2nc(NC(=O)C3CCN(S(=O)(=O)c4ccc5[nH]c(=O)ccc5c4)CC3)sc2c1 | 36.3
Cc1ccc(C(CNC(=O)c2cc3n(n2)CCN(C)C3)N2CCOCC2)o1 (stereo not given) | 5.3
Cc1ccc(-c2coc(-c3ccc(NC(=O)C(C)(C)C)cc3)n2)c(C)c1 | -62.9
COc1ccccc1Nc1nn(-c2ccc(F)cc2)c2c1C(=O)CCC2 | -40.0
CSc1nnc(-c2ccc(S(=O)(=O)N3CCOCC3)cc2)n1CC1CCCO1 (stereo not given) | -4.6
CCN(CC)CCNC(=O)C1=C(C)C(=O)OC12CCN(S(=O)(=O)c1cccs1)CC2 | 36.3
CC(C)[C@@H]1COCn2nncc2CCCC(=O)N1 | -46.9
Cc1ccc(Nc2nc(C(=O)Nc3cccc(Cl)c3C)nc3ccccc23)cc1 | 26.0
O=C(NCC1CC1)C1CCC2(CCN(CC3CCOCC3)CC2)O1 (stereo not given) | 57.4
CCOCc1ncn2c1CN(S(=O)(=O)c1cccs1)CCC2 | -3.1
Cc1c(Cl)cccc1NC(=O)NCC(c1cccnc1)c1cn(C)c2ccccc12 (stereo not given) | 441.1

Ordered by heavy-atom count (descending): 4 of the compounds above
compound | Tg IFNy HTS
Cc1c(Cl)cccc1NC(=O)NCC(c1cccnc1)c1cn(C)c2ccccc12 (stereo not given) | 441.1
Cc1nc2c(c(=O)n1C)CCN(C(=O)CN1CCC(c3ccccc3)C1)CC2 (stereo not given) | 5.1
O[C@@H]1CN(CCCC2CCCC2)CC[C@H]1c1ccc2c(c1)OCO2 | -25.7
CC(C)c1ccc(NC(=O)Nc2csc(-c3cccs3)n2)cc1 | -51.6

From PubChem BioAssay
